# 2A StopGo: FMDV 2A StopGo reporter, luciferase signal | human cells with a luciferase reporter of 2A StopGo recoding; control for the full effect not named in the record | Potency, µM (top dose mostly 57.9 µM), for inactives: at the highest dose signal change, negative = less light | 410,000 compounds, 1.2% hits | AID 1159524; active = well fitted falling curve with a large enough effect; inconclusive = small, poorly fitted or top-dose-only effect; inactive = no such curve, though single readings can be large or run the other way; tested in HEK293T cells; also: nearly all actives have a fitted effect of over 45% in size; luciferase light after 4 h
# RE007 growth inh: less growth of the S. pombe RE007 Vpr strain. 360,000 compounds, 0.21% hits. S. pombe RE007 Vpr strain, BacTiter-Glo ATP luminescence, 24 h; control for the full effect not named in the record. Potency, µM (highest dose often 92.2 µM), for inactives: top-dose activity change, negative = less growth; active = well fitted falling curve with a large enough effect; inconclusive = small, poorly fitted or top-dose-only effect; inactive = no such curve, though single readings can be large or run the other way;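 also: nearly all actives have a fitted effect of over 50% in size; the assay follows cell death caused by Vpr and the record does not say whether a fall means rescue or toxicity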
#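 Fission yeast strain RE007, carrying one chromosomally integrated HIV-1 vpr copy, was seeded at OD 0.01 in PMG+AL medium with 23 nL pinned compound. After 24 h at 30 °C and 99% humidity, viability was read by BacTiter-Glo luminescence.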
# Numbers without * were called inactive; ? = inconclusive; [ ] = another dose, or the depositor's remark. % is scaled to controls: 0 for no effect and ±100 for the full control effect; potency is read from the fitted curve at half-maximal effect. Only part of the results is shown; rates above refer to the full screens.
# Below each SMILES: 2A StopGo	RE007 growth inh
1: C#CCOCC1CN(C)C(=O)O1 (configuration not stated)
    -11%	-26%
2: Cc1cccc(-n2c(-c3ccc(Br)o3)n[nH]c2=S)c1
    17%	-4%
3: Cc1ccc2ccc(C(Nc3ccccc3)c3ccccc3)c(O)c2n1 (configuration not stated)
    -10%	-10%
4: O=C1NN(c2ccccc2)C(=O)C1=Cc1ccccc1O
    29%	135%
5: O=c1[nH]c(=S)[nH]c2c1C(c1ccccc1)OC(C1CCCCC1)C2 (configuration not stated)
    -25%	12%
6: CC(C)(C)S(=O)N1Cc2cc(CO)cc(-c3ccccc3)c2[C@@H]1CCO (some centres not stated)
    -26%	4%
7: CC(C)Oc1ccc(CN2CCC2(C)C(=O)NCc2cccc3ccccc23)cc1 (configuration not stated)
    ?	-17%
8: CCCCn1nnnc1C(c1cc2ccccc2o1)N1CCOCC1 (configuration not stated)
    3%	0%
9: CC(=O)Nc1ccc(C=CC(=O)c2ccc([N+](=O)[O-])cc2)cc1
    -15%	-10%
10: CC1(C(=O)O)CCN1C(=O)COc1ccc(Cl)cc1 (configuration not stated)
    -11%	7%[18.4 µM]
11: O=C(CSc1nnc(C2CC2)n1C1CC1)N1CCN(c2ccc(O)cc2)CC1
    -7%	17%
12: COc1ccc(Cl)cc1-c1cc(C(=O)Nc2cc(OC)c(OC)c(OC)c2)[nH]n1
    -3%	-8%
13: O=C(NCc1ccc(C(F)(F)F)cc1)c1cccc2c(-c3ccc(F)c(F)c3)coc12
    -14%	-15%
14: NC(c1csc(Nc2cnccn2)n1)C1CCCCC1 (configuration not stated)
    0%	-21%
15: COc1ccccc1C(O)c1ncc(-c2cccc3ccccc23)[nH]1 (configuration not stated)
    -12%	1%
16: COC(=O)[C@H]1C[C@H](OC(=O)NCc2ccco2)[C@@]2(O)CN(S(=O)(=O)c3ccc(C)cc3)CC2[C@H]1C(=O)OC (some centres not stated)
    ?	-12%
17: O=C(Cc1ccc(NC(=O)C2CCCN(C(=O)C3CCCC3)C2)cc1)Nc1cccc(C(=O)N2CCCC2)c1 (configuration not stated)
    -14%	9%
18: CCCNC(=O)C1(C)CCN1C(=O)c1ccc(C(C)(C)C)cc1 (configuration not stated)
    -26%	-2%
19: CNC(=O)C[C@H]1C(=O)N(Cc2ccccc2)C[C@@H]1Cc1ccccc1
    -1%	2%
20: Cn1cccc1C(=O)OCC(=O)N1CCc2ccccc2C1
    29%	-7%
21: Cc1ccc(CNC(=O)C2(C)CCN2C(=O)Cc2ccc(C(C)(C)C)cc2)cc1 (configuration not stated)
    -21%	4%[18.4 µM]
22: C=C(C)c1sc(-c2ccccc2)nc1C
    -3%	-3%
23: O=c1c2ccccc2[nH]c(=S)n1-c1cccc(Cl)c1
    91%[activator]	7%
24: Cc1cccc(CSCC(=O)N2CCN(S(=O)(=O)c3ccccc3C#N)CC2)c1
    -11%	1%
25: O=C1NC[C@H](CCCCN2C[C@H](Cc3ccc(O)cc3)N(CCc3ccccc3)C(=O)C2=O)N(CCc2ccccc2)C1=O
    -12%	1%
26: CC1(C)NC(=O)[C@H]2CCCN21
    -1%	-9%
27: Cc1ccc(NC(=O)CNC(=O)c2ccc(OC(F)F)cc2)cc1S(=O)(=O)N1CCCCCC1
    -20%	9%
28: CS(=O)(=O)c1ccc(Cl)c(NC(=O)CN2CCN(S(=O)(=O)/C=C/c3ccccc3)CC2)c1
    1%	-2%
29: CCC/C=C1/CCCOC(C(=O)NCc2ccc(S(C)(=O)=O)cc2)(C(F)(F)F)C1 (configuration not stated)
    -17%	4%
30: CC(=NNC(=S)N1CCCC1)c1ccccn1
    14%	-3%
31: CCOC(=O)C1=CC[C@@H](c2ccccc2)N(S(=O)(=O)c2ccc(C)cc2)[C@H]1/C=C/c1ccccc1
    -17%	-5%
32: CC1CCC(NC(=O)c2cccc(S(=O)(=O)N3CCOCC3)c2)CC1 (configuration not stated)
    5%	-10%
33: C[C@@H]1CN([C@H](C)CO)C(=O)CCCn2nncc2CO[C@H]1CN(C)S(=O)(=O)c1ccc(Oc2ccccc2)nc1
    -8%	12%
34: CCOc1ccccc1NC(=O)CSc1n[nH]c(=O)n1-c1ccccc1
    -22%	1%
35: CCc1nc2ccc(C(=O)NCC3CCCCC3)cn2c1N(CCC(C)C)CCN(C)C
    -16%	19%
36: C[C@H](c1ccccc1)N1C[C@H](COCc2ccccc2)Oc2cc(N3CC[C@H](O)C3)ccc2S1(=O)=O
    17%	-7%
37: Cc1ccccc1CNC(=O)c1csc([C@@H]2C[C@H](O)[C@@H](CO)O2)n1
    -19%	-5%[18.4 µM]
38: O=C1NC[C@@H](CCCCN2C[C@H](Cc3ccc(O)cc3)N(CC3CCCCC3)C(=O)C2=O)N(Cc2ccccc2)C1=O
    -16%	6%
39: Cc1c(Cl)cccc1NC(=O)CSc1nc(=O)n(CCCN2CCOCC2)c2c1CCCC2
    -3%	-13%
40: CC(=O)c1c(O)c(C)c(O)c2c1OC1=Cc3c(c(C)nn3-c3ccccc3)C(=O)C12C (configuration not stated)
    ?	-8%
41: N#CC(=Cc1ccnc2ccccc12)c1ccccc1
    ?	-14%
42: COC(=O)C1=C(C(=O)OC)[C@@H]2Nc3ccccc3[C@@]23C[C@@H](C(=O)OC)N(C(=O)c2ccco2)C3=N1
    -25%	-13%
43: COc1ccccc1Cc1c(C2CCCCC2)nc2ccc(Cl)cn12
    -14%	?
44: CCCCC[C@H]1CCCCC[C@@H](O)C[C@@H](O)[C@@H](O)/C=C/C(=O)O1
    -23%	5%
45: CCCNC(=O)C1(C)CCCN(C(=O)Cc2ccc(OC)c(OC)c2)C1 (configuration not stated)
    4%	3%[18.4 µM]
46: CCNC(=O)C1(C)CCN1Cc1cc(-c2ccccc2)n(C)n1 (configuration not stated)
    0%	-27%
47: OC[C@@H]1CN(C2CCCC2)C[C@H](n2cnc3c(NC4CC4)ncnc32)O1
    ?	-4%
48: O=C1C=C(CCc2ccccc2)CCC1
    14%	?
49: Cc1cccc(C)c1NC(=O)Nc1nnc([C@H]2C[C@H](O)[C@@H](CO)O2)s1
    -2%	9%
50: CCOC(=O)C1=C(C(=O)OCC)N(CC2CCCCC2)CCC1=O
    -25%	0%
51: O=C(c1ccc2ccccc2c1O)N1CCCCC1
    126%[activator]	?
52: Cc1ccc(OCCNC(=O)c2cccc(S(=O)(=O)N3CCN(Cc4ccccc4)CC3)c2)cc1
    ?	6%
53: CN(C(=O)c1cccc(NC(=O)Cc2ccc(NC(=O)C3CCCN(C(=O)C4CCCCC4)C3)cc2)c1)C1CCC1 (configuration not stated)
    ?	6%
54: Cc1cc(=O)[nH]c(NNC(=O)c2ccc(Cl)cc2)n1
    -7%	14%
55: O=C(NC1CCCCC1)c1ccc(-c2cn[nH]c2)c2ccoc12
    61%[activator]	-15%
56: O=C(C[C@H]1CC[C@H]2[C@@H](COC[C@@H](O)CN2S(=O)(=O)c2ccccc2)O1)N[C@@H]1CCN(Cc2ccccc2)C1
    -9%	-26%
57: CCCCC[C@H](C)N1C[C@H](COCc2ccccc2)Oc2cc(N3CC[C@H](O)C3)ccc2S1(=O)=O
    18%	7%
58: CC(C)=CCC[C@H](C)C[C@@H]1CC2=C(C(=O)OC(C)(C)O2)[C@@H](c2ccc(F)cc2)O1
    0%	-8%
59: C[C@H]1COc2cccc(N3CCC[C@@H]3CO)c2S(=O)(=O)N1
    -20%	-8%
60: CC1(C(=O)Nc2ccc3c(c2)OCO3)Cc2c(-c3ccc4c(c3)OCO4)ccnc2O1 (configuration not stated)
    -17%	-16%

# (cont.)
# Below each SMILES: 2A StopGo	RE007 growth inh
61: Cc1cccc(-c2n[nH]nc2C2=CC(=O)CC(C)(C)C2)c1
    -11%	-19%
62: Nc1ccccc1SC(CC(=O)c1ccccc1)c1ccc([N+](=O)[O-])cc1 (configuration not stated)
    10%	?
63: O=C(/C=C/[C@H]1O[C@@H](n2cnc3c(NC(=O)c4ccccc4)ncnc32)[C@H](O)[C@@H]1O)NCc1cccs1
    -17%	5%
64: Cn1c(=O)c2cc(NC(=O)Cc3ccccc3F)ccc2n1-c1ccc(C(C)(C)C)cc1
    -6%	8%
65: COc1ccccc1NC(=O)N(C)C[C@H]1OCc2cn(nn2)CCCC(=O)N([C@@H](C)CO)C[C@@H]1C
    -9%	-2%
66: O=C(CN1CCCC1c1cccs1)Nc1cc(S(=O)(=O)N2CCCCC2)ccc1Cl (configuration not stated)
    ?	3%
67: CCCNC(=O)C1(C)CCCN(Cc2ccc(C)cc2)C1 (configuration not stated)
    -17%	1%
68: CC1(C)CN(C2CCCCC2)C(=O)[C@H]1CC(=O)Nc1ccccc1
    -6%	-17%
69: COC(=O)c1ccccc1NC(=O)CSc1nc2ccsc2c(=O)n1CCCCC(=O)O
    -12%	5%
70: NC(N)=NCCCC(NC(=O)c1ccccc1)C(=O)Nc1ccc([N+](=O)[O-])cc1 (configuration not stated)
    -11%	-8%[18.4 µM]
71: COCCNc1nc2cc(-c3ccccc3OC)sc2c(=O)n1C
    -7%	-14%[18.4 µM]
72: CCOc1ccc(CCN2C(=O)C(=O)N([C@@H](Cc3ccccc3)CN3CCC[C@H]3CN3C(=O)C(=O)NC[C@@H]3Cc3ccccc3)C[C@@H]2CC(C)C)cc1
    -20%	3%
73: Fc1ccccc1-c1nc(NCC2CC2)nc2ccsc12
    -14%	-9%
74: COCCNC(=O)c1ccc(N2CC3CC(C2)c2cccc(=O)n2C3)c(NC(=O)c2ccccc2Br)c1 (configuration not stated)
    0%	1%
75: CCCCN1C(=O)C(CC(=O)NCCCCc2ccccc2)CC(C(=O)N(C)C)=C1C (configuration not stated)
    -5%	-13%
76: CCOC(=O)C1CCCN(C(=O)c2ccncc2)CC1 (configuration not stated)
    -9%	-14%[18.4 µM]
77: COc1cc(C(O)c2nc(-c3cccc(C#N)c3)cs2)ccc1F (configuration not stated)
    -26%	27%
78: N#CCCN(Cc1ccccc1)C(c1ccnc2ccccc12)c1nnnn1-c1ccc2c(c1)OCCO2 (configuration not stated)
    -15%	-4%
79: COc1ccc([C@@H]2CC(=O)[C@@H]3CN(S(=O)(=O)c4ccc(C)cc4)[C@H](c4cccc(Cl)c4)C[C@@H]3N2S(=O)(=O)c2ccccc2)cc1
    -18%	4%
80: COc1cccc(CN(C)C(=O)c2ccc(S(=O)(=O)Nc3ccccc3C)cc2)c1OC
    -17%	-6%
81: CCc1ccc(-c2ccc(SCC(=O)NC3CCCC3)nn2)cc1
    29%	-1%
82: COc1ccccc1C(CC(=O)c1ccccc1)C(=O)c1ccccc1 (configuration not stated)
    -4%	14%
83: CCCCCCCCN1C(=O)[C@H](CC(=O)N2CCSCC2)C[C@@]2(C(=O)OC)CCCCC=C12
    -8%	-3%
84: CCOC(=O)[C@]12Cc3cc(Cl)ccc3[C@H]1N(C1CCCCC1)C(=O)c1cc(OC)ccc12
    2.2µM*	63µM*
85: O=C(CSc1nnc2ccc(-c3ccccn3)nn12)Nc1ccc(F)cc1
    2%	-8%
86: O=C1[C@H]2[C@@H](c3ccc(C(F)(F)F)cc3)N[C@]3(CCCN(Cc4ccc(Br)cc4)C3=O)[C@H]2C(=O)N1Cc1ccccc1
    -2%	4%
87: CSc1ccc(CN2CCC2(C)C(=O)Nc2cnc3ccccc3c2)cc1 (configuration not stated)
    -15%	-26%
88: CC(=O)Oc1ccc(Cn2c(C)c(C(=O)NCc3ccc(C#N)cc3)sc2=O)cc1
    -19%	8%[18.4 µM]
89: COc1ccc(C(N)c2csc(Nc3ncccn3)n2)cc1 (configuration not stated)
    -6%	-2%[18.4 µM]
90: O=C(Nc1ccc(F)c(Cl)c1)c1csc([C@@H]2O[C@H](CO)[C@H](O)[C@H](O)[C@H]2O)n1
    -13%	0%

# Complete entries, quoted from the list.
# Listed for `COc1cccc(CN(C)C(=O)c2ccc(S(=O)(=O)Nc3ccccc3C)cc2)c1OC` → 2A StopGo = -17%; RE007 growth inh = -6%
# Listed for `Fc1ccccc1-c1nc(NCC2CC2)nc2ccsc12` → 2A StopGo = -14%; RE007 growth inh = -9%

# Continuation:
# Below each SMILES: 2A StopGo	RE007 growth inh
91: CC1C(=O)N(Cc2cn(CCC3OCCCO3)nn2)CCS(=O)(=O)N1Cc1ccc(-c2cccc(CO)c2)cc1 (configuration not stated)
    -26%	10%
92: CCCCC(=O)N(C)c1c(CC)nc2c(OCC=C(C)C)cccn12
    -7%	-18%
93: C[C@H](CO)N1C[C@H](C)[C@@H](CN(C)Cc2ccc3c(c2)OCCN3C)OCc2cnnn2CCCC1=O
    -5%	-14%
94: Cc1ccc(S(=O)(=O)N2C[C@H]3C(=O)C[C@@H](c4ccc(Cl)cc4)N(S(=O)(=O)c4ccccc4C)[C@H]3C[C@H]2c2cccc(Cl)c2)cc1
    -18%	1%
95: COc1ccc(OC)c(NC(=O)C2(C)CCN2C(=O)C(C)(C)c2ccccc2)c1 (configuration not stated)
    -10%	0%[18.4 µM]
96: O=C(Nc1ccccc1Cl)c1cc(C2CCCN(C(=O)c3ccccc3)C2)on1 (configuration not stated)
    -15%	0%
97: Cc1nn(-c2ccccc2)c(C)c1C(=O)OCC(=O)Nc1ccccc1Cl
    -1%	-11%
98: COc1cccc(CNC(=O)C2(C)CCCCN2C)c1 (configuration not stated)
    1%	-1%

# Exported as labelled records: part of the list above.
96: O=C(Nc1ccccc1Cl)c1cc(C2CCCN(C(=O)c3ccccc3)C2)on1 (configuration not stated)
- 2A StopGo: -15%
- RE007 growth inh: 0%

91: CC1C(=O)N(Cc2cn(CCC3OCCCO3)nn2)CCS(=O)(=O)N1Cc1ccc(-c2cccc(CO)c2)cc1 (configuration not stated)
- 2A StopGo: -26%
- RE007 growth inh: 10%

# Screening data (PubChem)
